Sa growth 42C = blocks Staphylococcus aureus growth; S. aureus RN4220 growth, OD600, 20 h, 42 °C; hits give low values; relative growth, % (no concentration beside the values); 170,000 compounds, 0.53% hits;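 active means growth at 42 °C up to 50% and 20 or more points under that at 30 °C, or under 10% at both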;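 further: 300 nL library stock went into each well; scaled to the means of positive and negative controls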
GIV-Gai inh = blocks GIV peptide binding to rat Galpha-i3. Galpha-i3/FITC-GIV peptide fluorescence polarization, 90 min; hits give low values; scaled: aluminum fluoride 0%, vehicle 100%. percent of control (FP), % (no concentration beside the values). 210,000 compounds, 0.42% hits. AID 1224905;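 active means replicate mean at 85% of control or lower, very high polarization wells dropped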;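 further: wells of about 15 µL received 100 nL stock; the first replicate is given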
Target sequence (P08753 whole entry, looked up): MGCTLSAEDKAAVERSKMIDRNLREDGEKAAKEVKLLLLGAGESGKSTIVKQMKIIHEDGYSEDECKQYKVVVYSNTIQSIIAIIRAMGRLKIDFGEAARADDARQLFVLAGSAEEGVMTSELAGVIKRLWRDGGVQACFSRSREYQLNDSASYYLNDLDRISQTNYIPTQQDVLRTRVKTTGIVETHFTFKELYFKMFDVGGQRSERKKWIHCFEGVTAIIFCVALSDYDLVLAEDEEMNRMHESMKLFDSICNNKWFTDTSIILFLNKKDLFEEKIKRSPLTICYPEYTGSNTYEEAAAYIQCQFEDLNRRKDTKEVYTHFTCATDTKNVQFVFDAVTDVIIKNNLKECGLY
HCMV NEC inh = inhibitors of HCMV UL50-UL53 nuclear egress complex interaction | inhibition, % (test concentration not listed) | HTRF UL50-UL53 interaction, normalized percent inhibition | AID 1918969 | 190,000 compounds, 0.15% hits;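 active means both replicates at 50% or more, plus weaker picks with an unusually low signal ratio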;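 further: stock transfer was 100 nL into about 20 µL; 0% = negative control wells and 100% = wells with untagged competitor protein; inactives centre near -12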
Sa growth 42C second temp = also measured in Sa growth 42C; calls as there; relative growth, %; measured here: growth at 30 °C;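 optical density after 20 h as mean of two plates; 100% = untreated growth and lower means inhibition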
The depositor's hits bear a star; . = no result given; & = joins results of further samples.

Below each SMILES: Sa growth 42C	Sa growth 42C second temp	GIV-Gai inh	HCMV NEC inh
> COc1ccc(NC(=O)c2sc3nc(C)c(C(=O)Nc4ccc(C)cc4C)c(-c4ccc(C)o4)c3c2N)cc1
→ 112	88	105	-15
> Cc1ccc(C)c(Cn2c(=O)n(-c3ccccc3)c(=O)c3c4c(sc32)CCCC4)c1
→ 90	93	109	0
> COc1ccc(C(CC(=O)Nc2ccccn2)N2Cc3ccccc3C2=O)cc1OC (stereo not given)
→ 121	94	104	.
> Cc1ccc(C)n1-c1ccc(C(=O)OCC(=O)c2ccc(Cl)cc2)cc1
→ 127	114	.	-4
> CCc1ccc(NC(=O)Cn2ccn(Cc3ccccc3OC)c(=O)c2=O)cc1
→ 117	92	101	-1
> COc1ccc(-n2ncc(C(=O)N3CCN(c4cc(C)ccc4C)CC3)c2C2CCN(C(=O)OC(C)(C)C)CC2)cc1
→ 89	89	103	.
> CC(C)(C)S(=O)(=O)c1cccc(S(=O)(=O)C(C)(C)C)c1
→ 96	95	.	-12
> COc1ccc(CCNC(=O)c2ccc3c(Cl)c4c(nc3c2)CCCC4)c(OC)c1
→ 104	84	107	-1
> CC(Oc1ccc(F)cc1)C(=O)N1CCN(CCc2ccccn2)CC1 (stereo not given)
→ .	.	99	3
> CC(=O)Nc1ccc(C(=O)OCC(=O)Nc2ccc(C)cc2)cc1
→ 111	93	.	0
> COc1cccc(NC(=O)CSc2nc3cc(OC)c(OC)cc3c3nc(-c4ccccc4)nn23)c1
→ 109	86	100	-22
> CC(NS(=O)(=O)c1ccc(Cl)cc1)C(c1cccs1)N1CCN(C)CC1 (stereo not given)
→ 105	90	105	.
> CN(C)c1cccc(C(=O)Nc2ccc(-c3nc4ccccc4s3)cc2)c1
→ 129	90	106	.
> NC(=S)c1ccc(C(F)(F)F)cc1Cl
→ 94	83	103	-17
> CC(C)CSc1nccn2nc(-c3ccccc3)cc12
→ .	.	105	-17

Continued (four carried over from the part before).
Below each SMILES: Sa growth 42C	Sa growth 42C second temp	GIV-Gai inh	HCMV NEC inh
> CC(NS(=O)(=O)c1ccc(Cl)cc1)C(c1cccs1)N1CCN(C)CC1 (stereo not given)
→ 105	90	105	.
> CN(C)c1cccc(C(=O)Nc2ccc(-c3nc4ccccc4s3)cc2)c1
→ 129	90	106	.
> NC(=S)c1ccc(C(F)(F)F)cc1Cl
→ 94	83	103	-17
> CC(C)CSc1nccn2nc(-c3ccccc3)cc12
→ .	.	105	-17
> O=C(Nc1ccc(F)cc1)[C@@H]1CCCN1S(=O)(=O)c1ccc(Cl)cc1
→ 97	93	.	-36
> CC(C)c1ccc(/C=C2\CSc3ccccc3C2=O)cc1
→ 87	92	106	-4
> CCCNC(=O)c1ccccc1NC(=O)c1nsc2ccccc12
→ 156	75	106	.
> O=C(c1ccc(F)cc1)N1CCN(CCn2c(C(F)(F)F)nc3cccnc32)CC1
→ .	.	103	2
> CCOc1ccc(NC(C)=O)cc1
→ 86	81	.	-48&-15&-16
> CCCCc1nnc2sc(-c3cccnc3)nn12
→ .	.	106	-10
> CN(C)c1ccc(CN(Cc2ccco2)C(=O)c2ccc(F)cc2)cc1
→ 104	90	105	-2
> COc1ccc(S(=O)(=O)NNC(N)=S)cc1
→ 101	101	95	16
> Cn1ncc(Br)c1C(=O)Oc1ccccc1Cl
→ 76	81	104	12
> CCCCn1ccnc1C(=O)c1cccc(S(=O)(=O)N2CC(C)CC(C)C2)c1 (stereo not given)
→ 77	86	.	-18
> Oc1ccccc1-c1noc(-c2ccccc2O)n1
→ 108	45	104	-10
> Cc1nnc(Sc2cc(C(=O)N3CCC4(CC3)OCCO4)c3ccccc3n2)s1
→ 89	94	100	0
> CC1CN(C(=O)c2ccc(F)cc2)c2ccccc2NC1=O (stereo not given)
→ .	.	109	9
> Cc1nc(-c2ccc(F)cc2)sc1CCNS(=O)(=O)c1ccccc1Cl
→ .	.	101	-14
> CCc1ccc(NC(=O)c2sc3nc(C)c(Cl)c(C)c3c2N)cc1
→ 99	96	104	-13

Remaining list, next part:
Below each SMILES: Sa growth 42C	Sa growth 42C second temp	GIV-Gai inh	HCMV NEC inh
> CC1CCc2c(sc(NC(=O)CN3C(=O)CCC3=O)c2C(N)=O)C1 (stereo not given)
→ 94	77	104	-21
> Cc1cc(=O)oc2cc(OC(C)C(=O)Nc3nnc(C4CCCO4)s3)ccc12 (stereo not given)
→ 90	99	106	-8
> Cc1csc(NC(=O)C2CCCN2C(=O)Oc2ccccc2)n1 (stereo not given)
→ 106	87	106	3
> COC(=O)C12CCC(=O)C(C(=O)OC)(CCC1=O)C2
→ 105	88	105	-15
> CC(CC(=O)NCc1ccccc1)n1cccn1 (stereo not given)
→ 100	90	103	-34
> CCC(=O)NC(c1c(C)[nH]n(-c2ccccc2)c1=O)(C(F)(F)F)C(F)(F)F
→ 159	96	.	-12
> S=C(NCCSc1nnnn1-c1ccccc1)Nc1ccccc1
→ 103	88	99	-11
> Cc1ccc(S(=O)(=O)N2CCCN(c3ccc(=O)n(-c4ccc(F)cc4)n3)CC2)cc1
→ .	.	102	-35
> CCCCNS(=O)(=O)c1ccc(OCC(N)=O)cc1
→ 100	102	104	-31
> CCCNS(=O)(=O)c1c[nH]c(C(=O)OC)c1
→ 100	89	104	.
> Cc1ccc(C)c(NC(=O)c2nnn(Cc3cccc(F)c3)c2N)c1
→ .	.	104	-4
> Cc1cc(C)c2nc(C)cc(Nc3cccc(C(=O)O)c3)c2c1
→ 105	87	112	-53
> CCOc1ccc2sc(C=NCc3ccc(OC)cc3)c(O)c2c1
→ .	.	107	-103
> N#C/C(=C\c1ccccc1)C(=O)Nc1cccc2c(=O)[nH][nH]c(=O)c12
→ 98	88	.	-28
> CN1CCN(C(=O)Nc2cccc(Cl)c2)c2cccnc21
→ 99	92	104&100	7&-11

Next part
Below each SMILES: Sa growth 42C	Sa growth 42C second temp	GIV-Gai inh	HCMV NEC inh
> Cc1ccc(-n2c(=O)c3c(C)c(C)sc3n(CC(=O)NCc3ccccc3)c2=O)cc1C
→ 101	84	103	-17
> FC(F)(F)c1ccc(C=Nn2c(-c3ccccc3)n[nH]c2=S)cc1
→ 79	79	.	-4
> Nc1nc(N)n(-c2ccccc2)n1
→ 74	90	104	11&-4&0
> COc1cccc2cc(-c3nc4ccc(C)cc4[nH]3)c(=O)oc12
→ 111	88	105	.
> CCc1ccc(C2C(C(=O)O)c3ccccc3C(=O)N2C)cc1 (stereo not given)
→ 109	83	100	1
> COc1ccc2cc(NC(=O)Nc3nnc(C)s3)n(C)c2c1
→ .	.	105	-10
> CCN1C(=O)/C(=C\c2ccc(-c3ccc(Cl)c(C(=O)O)c3)o2)SC1=S
→ -0.7*	0.0*	-15*	-391
> Cc1c(C(=O)NCCc2ccc(Cl)cc2)sc2nc3n(c(=O)c12)CCCC3
→ 91	88	98	-2
> O=C(c1sc(=S)n2c1[nH]c(=O)c1ccccc12)N1CCc2ccccc2C1
→ 113	88	103	5
> CC(Sc1nnc(Nc2ccccc2F)s1)C(=O)Nc1ccccc1 (stereo not given)
→ 98	94	.	-5
> O=C(/C=C/c1ccccc1)Nc1nc2n(n1)C(c1ccc(Cl)cc1)C=C(c1ccccc1)N2 (stereo not given)
→ 101	55	111	-14
> COc1ccc(C(=O)N/C(=C\c2cccc3ccccc23)C(=O)N2CCN(C)CC2)cc1
→ 115	90	.	-27
> CCCS(=O)(=O)C1=C(N)OC(c2ccccc2)=C(C#N)C1c1ccccc1 (stereo not given)
→ 117	87	104	-8
> Cc1csc(=O)n1CC(=O)OCC(=O)Nc1ccccc1
→ 99	86	.	-11
> Cc1ccc(C)c(-n2nnc(-c3nc(-c4ccc(Cl)cc4)no3)c2N)c1
→ 111	92	100	.

(listing goes on)
Below each SMILES: Sa growth 42C	Sa growth 42C second temp	GIV-Gai inh	HCMV NEC inh
> Cc1ccc(C)c(NC(=S)N(C)C)c1
→ 90	94	101	-20
> Cc1cc(C)cc(NC(=O)c2cc3c(=O)n(Cc4ccco4)ccc3nc2C)c1
→ 92	91	98	.
> O=C1NC(=Nc2cccc(Cl)c2Cl)S/C1=C/c1ccco1
→ 101	89	117	-10
> O=c1nc2ccccn2c2c1c(=O)[nH]c1ccccc12
→ 90	79	108	-20
> Cc1ccc(-n2cccc2)c(NS(=O)(=O)c2ccc(-c3ccon3)s2)c1
→ 115	42	106	-12
> CCOc1ccc(/C=C(\NC(=O)c2ccccc2)C(=O)NC)c2ccccc12
→ 115	86	99	.
> COc1ccccc1CNC(=O)CO/N=C/c1cccs1
→ 98	93	.	-34
> NS(=O)(=O)c1ccc(NC(=O)C2CCCNC2=O)cc1 (stereo not given)
→ 88	94	99	.
> Cn1cnnc1Sc1ccc(Cl)cc1NC(=O)c1cc(=O)[nH]c2ccccc12
→ 84	93	.	0
> COc1cccc(C(=O)NC(C)(C)C)c1OC
→ 100	98	107	6
> CC(=O)N1CC(C)Oc2cc(S(=O)(=O)N(C)Cc3ccccc3)ccc21 (stereo not given)
→ 100	88	109	.
> N#Cc1ccc(C=NCCN2CCNC2=O)cc1
→ 99	85	98	-28
> COc1ccc(C2CC(=O)N(c3ccc(C)c(C)c3)C(=O)C2)cc1OC
→ .	.	95	-6
> COc1ccc(OCC(=O)OCc2cc(=O)n3cc(C)sc3n2)cc1
→ 96	90	111	.
> CCc1ccc(-c2nc(CSCC(=O)NC3CC3)c(C)o2)cc1
→ 104	86	105	.

(list continues)
Below each SMILES: Sa growth 42C	Sa growth 42C second temp	GIV-Gai inh	HCMV NEC inh
> O=C(NCc1noc(C2CCCCC2)n1)c1coc(C2CC2)n1
→ .	.	99	10
> O=c1[nH]nc2n1-c1ccccc1SC2
→ 88	87	105	-25
> CN(C)c1oc(-c2ccc(S(=O)(=O)N(C)C)cc2)nc1C#N
→ .	.	99	-26
> CSC1=NCCN1CCOc1ccccc1
→ 89	81	102	-24
> CSc1n[nH]c(N)c1S(=O)(=O)c1ccc(Cl)cc1
→ 101	84	97	-5
> CC1CCc2cc(F)ccc2N1C(=O)c1cc(S(=O)(=O)N2CCCC2)cn1C (stereo not given)
→ 110	87	110	2
> N=c1n(Cc2ccccc2)c2ccccc2n1CC(O)c1ccccc1 (stereo not given)
→ 98	83	103	.
> CC1CC(C)CN(C(=O)NCc2noc3ccccc23)C1 (stereo not given)
→ 91	88	105	.
> CCC(C)NC(=O)Cn1c(=O)n(-c2ccc(C)cc2)c(=O)c2ccccc21 (stereo not given)
→ 94	90	103&106	0&-27
> Cn1c(NC(=O)C2CC2)cc(=O)n(C)c1=O
→ 90	83	96	-30

Molecules from the list above that contain an aryl methoxy group:
Below each SMILES: Sa growth 42C	Sa growth 42C second temp	GIV-Gai inh	HCMV NEC inh
> COc1ccc(NC(=O)c2sc3nc(C)c(C(=O)Nc4ccc(C)cc4C)c(-c4ccc(C)o4)c3c2N)cc1
→ 112	88	105	-15
> COc1ccc(C(CC(=O)Nc2ccccn2)N2Cc3ccccc3C2=O)cc1OC (stereo not given)
→ 121	94	104	.
> CCc1ccc(NC(=O)Cn2ccn(Cc3ccccc3OC)c(=O)c2=O)cc1
→ 117	92	101	-1
> COc1ccc(-n2ncc(C(=O)N3CCN(c4cc(C)ccc4C)CC3)c2C2CCN(C(=O)OC(C)(C)C)CC2)cc1
→ 89	89	103	.
> COc1ccc(CCNC(=O)c2ccc3c(Cl)c4c(nc3c2)CCCC4)c(OC)c1
→ 104	84	107	-1
> COc1cccc(NC(=O)CSc2nc3cc(OC)c(OC)cc3c3nc(-c4ccccc4)nn23)c1
→ 109	86	100	-22
> COc1ccc(S(=O)(=O)NNC(N)=S)cc1
→ 101	101	95	16
> CCOc1ccc2sc(C=NCc3ccc(OC)cc3)c(O)c2c1
→ .	.	107	-103
> COc1cccc2cc(-c3nc4ccc(C)cc4[nH]3)c(=O)oc12
→ 111	88	105	.
> COc1ccc2cc(NC(=O)Nc3nnc(C)s3)n(C)c2c1
→ .	.	105	-10
> COc1ccc(C(=O)N/C(=C\c2cccc3ccccc23)C(=O)N2CCN(C)CC2)cc1
→ 115	90	.	-27
> COc1ccccc1CNC(=O)CO/N=C/c1cccs1
→ 98	93	.	-34
> COc1cccc(C(=O)NC(C)(C)C)c1OC
→ 100	98	107	6
> COc1ccc(C2CC(=O)N(c3ccc(C)c(C)c3)C(=O)C2)cc1OC
→ .	.	95	-6
> COc1ccc(OCC(=O)OCc2cc(=O)n3cc(C)sc3n2)cc1
→ 96	90	111	.
